VDR inh = inhibitors of human vitamin D receptor | 400,000 tested, 0.93% active | AID 504847 | VDR-SRC2-3 peptide fluorescence polarization, 2 h | Potency, µM, for the others: max response, negative = inhibition, hits mostly inhibitors; active = well fitted inhibition curve with a large enough effect; inconclusive = small, poorly fitted or top-dose-only effect, or another doubt; inactive = no such curve, though single readings can be large or run the other way; also: series mostly up to about 120 µM
Target sequence (P11473 whole entry, looked up): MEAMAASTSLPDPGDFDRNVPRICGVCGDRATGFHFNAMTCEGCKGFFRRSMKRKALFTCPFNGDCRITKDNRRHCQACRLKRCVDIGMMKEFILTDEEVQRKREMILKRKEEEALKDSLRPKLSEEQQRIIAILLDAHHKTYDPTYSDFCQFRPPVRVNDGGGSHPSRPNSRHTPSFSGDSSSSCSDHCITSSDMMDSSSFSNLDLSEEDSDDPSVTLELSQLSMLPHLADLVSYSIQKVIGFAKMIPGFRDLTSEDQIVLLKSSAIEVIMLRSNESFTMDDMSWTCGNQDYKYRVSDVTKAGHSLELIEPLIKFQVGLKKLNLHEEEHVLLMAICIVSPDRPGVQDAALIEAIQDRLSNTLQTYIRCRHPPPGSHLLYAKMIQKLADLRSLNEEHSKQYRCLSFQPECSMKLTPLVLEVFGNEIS
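Compounds are added to VDR with labelled SRC2-3 coactivator peptide and held 2 h at room temperature. Inhibition of the VDR–peptide interaction is then read as a change in fluorescence polarization.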
* marks the source's active call; other numbers are inactive results; ? = inconclusive. % is scaled to controls: 0 for no effect and ±100 for the full control effect; potency is read from the fitted curve at half-maximal effect.

SMILES | VDR inh
COC(=O)COc1ccc2c(=O)c(Oc3ccccc3Br)coc2c1 | -2.8%
N#CC1=C(N)Oc2ccccc2C12C(=O)Nc1n[nH]c(-c3ccccc3)c12 (stereo unspecified) | 24.8%
COc1ccccc1NC(=O)c1nn(-c2cccc(C(F)(F)F)c2)ccc1=O | 7.5%
COc1ccc(C2NC(=O)c3ccccc3N2)cc1 (stereo unspecified) | 0.7%
S=C(Nc1ccc(Br)cc1)NC1CCCC1 | -6.0%
COC(=O)c1ccccc1NC(=O)CN(c1ccccc1)S(=O)(=O)N(C)C | -16.4%
CC(C)CC(NS(=O)(=O)c1ccccc1S(=O)(=O)NC(CC(C)C)C(=O)O)C(=O)O (stereo unspecified) | 11.7%
CCCCN(C(=O)c1cc2c(s1)CCCC2)c1c(N)n(CCC)c(=O)[nH]c1=O | -7.2%
CC(C)CCNC(=O)c1ccc2c(c1)N(Cc1cccc(Cl)c1)C(=O)c1ccccc1S2 | 1.8%
COc1ccc(C2C(C(=O)N3CCCC3)c3cc(OC)c(OC)cc3C(=O)N2C)cc1OC (stereo unspecified) | 2.9%
O=C1CCc2cc(NS(=O)(=O)c3ccc([N+](=O)[O-])cc3)cc3c2N1CC3 | 11.9%
O=C1CCC(C(=O)N2CCCCO2)CN1Cc1ccc(Cl)cc1 (stereo unspecified) | -3.6%
CC(O)CN(Cc1cccc(Cl)c1)CC(C)O (stereo unspecified) | -9.8%
CC(=O)N1CCc2c(sc3c2c(=O)n(-c2ccccc2)c(=O)n3CC(=O)NCC2CCCO2)C1 (stereo unspecified) | -15.9%
CCCC(=O)Oc1ccccc1C1SCc2cc(C)c(C)cc2CS1 | -8.3%
CC(C(=O)Nc1ccc(O)cc1)c1cccc(C(=O)c2ccccc2)c1 (stereo unspecified) | -15.4%
O=C(NNc1ccccc1)Nc1cc(Cl)ccc1Cl | 39.8µM*
Cc1ccccc1OCC(=O)Nc1cccc(S(=O)(=O)NC2=NCCCCC2)c1 | 7.3%
Cc1cc(O)c2c(c1O)C(=O)c1c(O)cc(C)c(O)c1C2=O | ?
Cc1ccc(C)c(NC(=O)Cn2cnc3nc4c(cc3c2=O)CCCC4)c1 | 4.5%
Cc1cc(N2CCOCC2)c2c(N)cc(C)c(C)c2n1 | -6.6%
CCOC(=O)/C(C#N)=C\c1ccc(O)c(OC)c1 | 9.7%
CCOC(=O)c1sc2nc(C)n(CC(=O)NCC3CCCO3)c(=O)c2c1C (stereo unspecified) | 20.4%
O=c1cc(C(O)C[N+](=O)[O-])occ1OCc1ccccc1 (stereo unspecified) | 22.9%
O=C1CCCC2=C1C(c1ccncc1)c1c(nc(SCc3ccccc3Cl)[nH]c1=O)N2 (stereo unspecified) | 8.3%

Three compounds from above, ordered by the number in VDR inh, largest number first:
SMILES | VDR inh
Cc1ccccc1OCC(=O)Nc1cccc(S(=O)(=O)NC2=NCCCCC2)c1 | 7.3%
CCCCN(C(=O)c1cc2c(s1)CCCC2)c1c(N)n(CCC)c(=O)[nH]c1=O | -7.2%
COC(=O)c1ccccc1NC(=O)CN(c1ccccc1)S(=O)(=O)N(C)C | -16.4%

Additional entries
SMILES | VDR inh
O=C1C(Cl)=C(N2CCCCC2)C(=O)N1Cc1ccccc1 | -11.7%
Cc1noc(C)c1COC(=O)C1(c2cccc(F)c2)CCCC1 | 1.2%
O=C(CCn1c(=O)c2ccccc2n(Cc2cccnc2)c1=O)NCc1ccc2c(c1)OCO2 | 12.3%
CCN(CC)c1nc2ccccc2[nH]c1=O | 2.5%
COCCn1c(C)cc(O)c(C(c2ccccc2OC)N2CCN(c3ccccc3)CC2)c1=O (stereo unspecified) | -1.0%
CCCN(CCC)C(=O)c1cc(S(=O)(=O)N2CCCCC2)c[nH]1 | -4.8%
CCCc1nn(C)c(C(=O)Nc2ccccc2)c1Cl | 1.4%
CCOc1ccccc1NC(=O)CSc1ccc([N+](=O)[O-])cc1 | -10.0%
CNC(=S)N1CCN(c2ccc(OC)cc2)CC1 | 13.6%
O=C(CSc1nc2c([nH]c3ccccc32)c(=O)n1-c1cccc(C(F)(F)F)c1)N1CCc2ccccc21 | 4.6%
Cc1ccc2c(c1)C(c1ccc(F)cc1)N(C(=O)C1CC1)CC(=O)N2 (stereo unspecified) | -13.3%
C#CCOCCOCCOCCNc1nc(N2CCN(C(=O)CCCCCCCCCCNC(=O)[C@H](CCCCN)n3cc(C)nn3)CC2)nc(N2CCN(C(=O)CCCCCCCCCCNC(=O)[C@H](CCCCN)n3cc(CCCC(=O)O)nn3)CC2)n1 | -3.1%
Cc1cc(C)cc(CN2C(=O)NC3(CCCCCC3)C2=O)c1 | 12.5%
Cc1ccccc1OCC(=O)NCC(=O)OCC(=O)c1ccc([N+](=O)[O-])cc1 | ?
COc1cc(C2C(C(=O)c3ccco3)=C(O)C(=O)N2Cc2cccnc2)cc(OC)c1OC (stereo unspecified) | 1.1%
CC(CC(=O)N1CCN(S(=O)(=O)c2ccc([N+](=O)[O-])cc2)CC1)c1ccccc1 (stereo unspecified) | 13.7%
CSCCC(NS(=O)(=O)c1ccc(C)cc1)C(=O)N1CCCC1 (stereo unspecified) | 4.2%
COc1cc(C2/C(=C(\O)c3ccc4c(c3)OCCO4)C(=O)C(=O)N2Cc2ccco2)ccc1O (stereo unspecified) | -6.2%
CC(=O)N1CCC2(CC1)OC(=O)C(C)=C2C(=O)NCc1ccc(Cl)cc1 | -5.2%
COC(=O)c1cc(S(=O)(=O)N2CCN(Cc3ccccc3)CC2)cn1C | -4.4%
O=S(=O)(NCc1cc(-c2ccccc2Cl)no1)c1ccccc1 | -8.9%
C=CC[C@H]1CC(C)=C[C@H](CC=C)N1C(=O)c1cc(COc2ccccc2SC)on1 | -4.3%
COc1cccc(/C=N/Nc2nnc(C)n2N)c1O | 18.2%
CN(C(=O)c1ccc(NC(=O)Cc2ccc(NC(=O)C3CCN(C(=O)C4CCCC4)CC3)cc2)cc1)C1CCCC1 | -17.5%
CC(=O)NC1(C2CCCCC2=O)CCCCC1 (stereo unspecified) | 0.4%

Look-ups from the results shown:
CCCN(CCC)C(=O)c1cc(S(=O)(=O)N2CCCCC2)c[nH]1 | VDR inh = -4.8%
Cc1cc(C)cc(CN2C(=O)NC3(CCCCCC3)C2=O)c1 | VDR inh = 12.5%
COC(=O)c1cc(S(=O)(=O)N2CCN(Cc3ccccc3)CC2)cn1C | VDR inh = -4.4%
CCCc1nn(C)c(C(=O)Nc2ccccc2)c1Cl | VDR inh = 1.4%
COc1cc(C2/C(=C(\O)c3ccc4c(c3)OCCO4)C(=O)C(=O)N2Cc2ccco2)ccc1O (stereo unspecified) | VDR inh = -6.2%
C=CC[C@H]1CC(C)=C[C@H](CC=C)N1C(=O)c1cc(COc2ccccc2SC)on1 | VDR inh = -4.3%
COCCn1c(C)cc(O)c(C(c2ccccc2OC)N2CCN(c3ccccc3)CC2)c1=O (stereo unspecified) | VDR inh = -1.0%

Further compounds follow:
SMILES | VDR inh
COc1cc(Cl)c(C)cc1NC(=O)c1cnc2c(-c3cccc(C)c3)c(C)nn2c1C | -1.7%
C#C[C@]1(O)CCC2C3CCC4=Cc5oncc5C[C@@]4(C)C3CC[C@@]21C (stereo partly specified) | -12.2%
CC(=O)NC(Cc1c[nH]c2ccccc12)C(=O)Nc1ccc2c(c1)OCO2 (stereo unspecified) | 0.2%
CC(C)Cn1c(N2CCN(CC(=O)Nc3ccc(Cl)cc3)CC2)nc2ccccc21 | -7.0%
N#Cc1ccc(CN2CCN(C(=O)Cn3nc(C(N)=O)c4ccccc4c3=O)CC2)cc1 | -4.5%
CCC(=O)N1c2ccccc2C(C)(c2ccccc2)CC1(C)C (stereo unspecified) | -5.6%
Cc1ccccc1NS(=O)(=O)c1ccc(C(=O)NCC(c2ccccc2)N(C)C)cc1 (stereo unspecified) | 2.2%
COc1ccc(C(=O)COC(=O)Cn2cnc3ccccc3c2=O)c(OC)c1 | -1.0%
CCOc1ccc(OCC(=O)NCCS(=O)(=O)N2CCN(c3ccc(OC)cc3)CC2)cc1 | 6.6%
CC(=N)C1=C(O)CC(C)(C)CC1=O | 3.4%
COC(CSc1ncnc2c1oc1nc3c(cc12)COC(C)(C)C3)OC | -9.7%
O=C(OCC(=O)c1ccc(Cl)cc1Cl)c1ccc2c(c1)C(=O)N(c1cccc3ncccc13)C2=O | -21.1%
C/C=C/Cn1c(N2CCCCCC2)nc2c1c(=O)[nH]c(=O)n2C | -13.9%
Cc1cccc(COCC(Cc2ccccc2)N2CCN(C(=O)c3ccc(Cl)c(Cl)c3)CCC2=O)c1 (stereo unspecified) | -3.4%
O=C(CSc1nnc(-c2cccc(F)c2)o1)Nc1nncs1 | -6.1%
CCc1ccc(S(=O)(=O)c2cn(C)c3ccc(C)cc3c2=O)cc1 | -2.2%
Cc1cc(C)c2cc(C(=O)N3CCC(C(=O)c4ccc(F)cc4)CC3)[nH]c2c1 | -6.4%
C=CCC[C@@H](Cc1ccc(F)cc1)C(=O)O[C@H](CNC(=O)[C@H](CC=C)CC(=O)N(CCO)Cc1ccccc1)c1ccccc1 | 4.1%
CCOC(=O)N1CCC(N(CCN(C)C)C(=S)Nc2ccccc2OCC)CC1 | 2.1%
Cc1cc(C)cc(NC(=O)COC(=O)CCn2c(C)csc2=O)c1 | 17.7%
O=S(=O)(c1cc(F)ccc1F)N1CCC2(CC1)OCCO2 | -1.2%
Cc1onc(-c2ccccc2)c1C(=O)N1CCCC1 | -5.1%
COc1ccc2c(c1)c(N=NC(N)=S)c(O)n2CC(=O)c1ccccc1 | 17.0%
CCCOc1ccc(-c2nc(C#N)c(N3CCN(CC)CC3)o2)cc1 | 1.3%
Cc1nnc(SC(C(=O)Nc2cc(Cl)cc(Cl)c2)c2ccccc2)[nH]c1=O (stereo unspecified) | 4.7%

Fetched by structure from above (four):
SMILES | VDR inh
CCOC(=O)c1sc2nc(C)n(CC(=O)NCC3CCCO3)c(=O)c2c1C (stereo unspecified) | 20.4%
Cc1cc(C)cc(NC(=O)COC(=O)CCn2c(C)csc2=O)c1 | 17.7%
COc1cc(Cl)c(C)cc1NC(=O)c1cnc2c(-c3cccc(C)c3)c(C)nn2c1C | -1.7%
CC(C)CC(NS(=O)(=O)c1ccccc1S(=O)(=O)NC(CC(C)C)C(=O)O)C(=O)O (stereo unspecified) | 11.7%

Additional results follow.
SMILES | VDR inh
O=C1C=CC(=O)N1c1ccc2c(c1)Cc1cc(F)ccc1-2 | ?
O=[N+]([O-])c1cc(CN2CCC(O)CC2)ccc1Cl | -3.4%
O=C(O)C1C2CCC(CC2)C1C(=O)N1CCN(Cc2ccc(F)cc2)CC1 (stereo unspecified) | -9.5%
COc1cccc(/C=C2/NC(=O)NC2=O)c1OCC(=O)Nc1ccccc1 | 9.8%
C=CCNC(=O)c1ccccc1NC(=O)C1CC(=O)N(C(C)C)C1 (stereo unspecified) | 2.8%
O=C(Nc1ncc([N+](=O)[O-])s1)c1ccc2c(c1)OCO2 | 0.0%
CC(C)=CCC/C(C)=C/CO | 3.6%
CCC(=O)N1CCc2cc(S(=O)(=O)CCC(=O)Nc3c(C)n(C)n(-c4ccccc4)c3=O)ccc21 | -2.6%
Cc1cc(C)nc(N(C#N)S(=O)(=O)c2ccccc2Cl)n1 | -4.3%
O=C(CN1CCCCC1)NC(=O)NC1CCCCC1 | -20.4%
CC(=O)Nc1ccccc1C(=O)N1CC(C)OC(C)C1 (stereo unspecified) | 19.9%
COCCCNC(=O)CC1C[C@H](C(=O)N(C(C)C)C(C)C)[C@@]2(C)c3[nH]c4ccc(OC)cc4c3CCN2C1=O (stereo partly specified) | 12.8%
CC(=O)N/C(=C\c1ccccc1)C(=O)OCC(=O)NC(C)C12CC3CC(CC(C3)C1)C2 (stereo unspecified) | -10.7%
COc1cc(S(=O)(=O)Nc2cccnc2)ccc1Cl | -0.4%
Fc1ccc(OCCOCCN2CCCC2)cc1 | 14.8%
O=C(N/N=C/C(Cl)=C\c1ccccc1)c1cnccn1 | -7.4%
CC(=O)Nc1ccc(S(=O)(=O)NCC2CCC(C(=O)NC(C)c3ccccc3)CC2)cc1 (stereo unspecified) | 4.2%
Cc1ccc(S(=O)(=O)N2CC3(C)CN(S(=O)(=O)c4ccc(C)cc4)CC(C)(C2)C3)cc1 | 10.1%
CCCCCCCCCCCCC/C=C\[C@@H](O)[C@@H](N)CO | 0.6%
CCN=C1Cn2c(nc3scc(-c4ccccc4)c3c2=O)CN1CC | -2.6%
Oc1cc2ccccc2cc1-c1nnc2n1-c1ccccc1SC2 | 0.9%
Nc1ccc(C(=O)O)cc1[N+](=O)[O-] | 13.8%
C/C(=N\NC(=O)CCCCCNC(=O)c1ccccc1)c1ccccc1O | -10.3%
CC1CCN(Cc2nnnn2CCCC(=O)N(C)C2CCOC2)CC1 (stereo unspecified) | -5.7%
CCOc1ccc(CC(=O)N2CCN=C2SC)cc1 | ?

Records listed above that bear a hit mark in VDR inh:
SMILES | VDR inh
O=C(NNc1ccccc1)Nc1cc(Cl)ccc1Cl | 39.8µM*

(further entries)
SMILES | VDR inh
CC(=O)NCCOC(=O)c1nn(Cc2ccccc2)c(=O)c2ccccc12 | 12.0%
CCCCCCCCN1[C@@H](CC(=O)OCC)c2cc(F)ccc2S1(=O)=O | 16.3%
Cc1cc(-c2cccc([N+](=O)[O-])c2)nc2ccc3ccccc3c12 | -4.0%
C/C(=N\Nc1ccc(S(=O)(=O)N2CCCCC2)cn1)c1ccc(O)cc1 | -2.7%
CC(=O)c1cc(CC=C(C)C)c(O)cc1O | 9.8%
Cc1cc(C)cc(N=Cc2c(O)c3ccccc3oc2=O)c1 | 0.3%
Cc1ccc(CN(c2ccc(C(=O)NCc3ccccn3)cc2)S(C)(=O)=O)cc1 | 5.5%
CCN(CC)CCn1c(=N)n(CC(O)c2ccco2)c2ccccc21 (stereo unspecified) | -6.4%
CCOc1ccccc1C1C(C(=O)OC)=C(N)OC2=C1C(=O)CCC2 (stereo unspecified) | -3.2%
Cc1ccc(S(=O)(=O)N[C@@H](Cc2ccccc2)C(=O)N2CCC[C@@H]2C(=O)O)cc1 | -7.7%
O=C(c1cccc(Cl)c1)N1c2nc(-c3ccco3)nn2C2(CCCCC2)[C@@H]2CCCC[C@@H]21 | 0.5%

A portion of the library, so the mix of outcomes need not match the whole.
